# Vaccinia pol inh – vaccinia E9 polymerase processive synthesis inhibitors, primary screen, biochemical, absorbance | in vitro processive DNA synthesis, absorbance read-out; active compounds read low; some inactives read as strong as hits | normalized absorbance, % (concentration not given with the values) | 46,000 tested, 0.94% active;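 active means replicate mean up to 90% and picked by the depositor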;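 further: 100% = median of the test wells of a plate; 100 nL library stock went into each well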
# Active calls of the source: *.
SMILES,Vaccinia pol inh
COc1ccccc1Oc1ccc(S(=O)(=O)Nc2cccnc2)cc1,89
CN1N=C(c2ccc3ccccc3c2)CC1c1ccc(F)cc1 (centres undefined),102
CCOC(=O)c1cc2ccccc2c(=O)s1,103
O=C(COc1ncnc2ccccc12)Nc1cccc(C(F)(F)F)c1,103
Cc1c(C(=O)NCc2ccccc2)oc2ccc(S(=O)(=O)N3CCCC3)cc12,100
CCc1cc2c(SCC(=O)c3ccccc3)ncnc2s1,99
N#Cc1cccc(NC(=O)CCCc2ccccc2)c1,103
NC(=O)c1ccc(C(F)(F)F)[nH]c1=O,97
CCc1cc2c(=O)c(-c3cnn(-c4ccccc4)c3)c(C)oc2cc1O,102
O=C(NCCc1ccccc1)c1cc2sccc2n1Cc1ccc(Cl)cc1,99
O=C(O)c1ccc(-c2nnc(-c3ccccc3Cl)o2)cc1,100
Cn1nnnc1SCC(=O)NC(C)(C)C,100
Cn1nc(C(F)(F)F)c2cc(NC(=O)OCC(C)(C)C)sc21,114
CN(C)/C=C/C(=O)c1ccsc1,99
COc1ccc(-c2[nH]ncc2-c2cnc(C)s2)c(O)c1,102
COc1cc2[nH]c(=O)c(C(=O)NC(C)c3ccccc3)c(O)c2cc1OC (centres undefined),92
CC(C)CCOc1ccccc1C(N)=O,101
O=C(NCCN1CCCCCC1)c1ccc(CS(=O)(=O)c2ccc(Br)cc2)o1,93
COc1ccc(CCNC2=CC(=O)OC23CCCCC3)cc1OC,101
O=C(O)CCCN1C(=O)c2ccccc2C1=O,100
Cc1cc(Oc2ccccc2)nc(Oc2ccc(OCCOc3ccc(Br)cc3)nn2)n1,100
CC1=C2C(=NCCN1)C(=O)N(c1ccccc1)C2c1cccnc1 (centres undefined),109
CN1C/C(=C\c2ccc(F)c(F)c2)C(=O)/C(=C/c2ccc(F)c(F)c2)C1,86
COC(=O)Cn1c(=O)oc2ccccc21,95
COc1ccc(OC(=O)c2cc3ccccc3oc2=O)cc1,100
O=c1cc(-c2cccs2)nc(-c2cccc(I)c2)o1,100
CCc1n[nH]c(=S)c2cc3sccc3n12,103
COC(=O)c1cc(OC)c(OC)cc1NS(=O)(=O)c1ccsc1C(=O)OC,83
Cc1ccc(C(=O)Oc2ccc(/C=N/c3cccs3)cc2)cc1,100
Cc1c(C(=O)Nc2ccc(S(=O)(=O)N3CCCCC3C)cc2)oc2ccccc12 (centres undefined),100
O=C(CSc1ncnc2c1oc1ccccc12)NCc1ccccc1,84
CCC(Cc1ccccc1)NC(=O)c1ccc2nc(-c3ccccc3NC(C)=O)c(=O)[nH]c2c1 (centres undefined),105
COc1ccc2cc3cc(C(=O)N4CCC5(CC4)OCCO5)oc3nc2c1,103
O=c1oc2ccccc2n1CCCOc1ccccc1,103
O=C1CCCC(O)=C1C=NCc1ccccc1,106
O=C(NCCc1ccccn1)c1ccc2nccnc2c1,105
CC1CCN(C(=O)CN(C)S(=O)(=O)c2cccc3nsnc23)CC1,81
Cc1nnc(SCCn2c(N3CC(C)CC(C)C3)nc3c2c(=O)n(C)c(=O)n3C)s1 (centres undefined),98
COc1ccccc1N1CCN(C(=O)c2ccc(/C=C3\Oc4ccccc4NC3=O)cc2)CC1,96
COC(=O)c1ccc(OCC#N)cc1,91
COc1ccc(CN(C(=O)c2cccc(Cl)c2)C2CCS(=O)(=O)C2)cc1OC (centres undefined),101
COC(=O)c1ccccc1NC(=O)/C=C/c1ccc(-c2ccccc2)o1,105
O=C1/C(=C/c2cccc(O)c2)SC(=S)N1c1ccccc1O,98
Cc1ccc(OC(=O)c2cc3ccccc3o2)cc1,100
Cc1oc(C(C)(C)C)cc1C(=O)NCc1csc2ccc(Cl)cc12,89
CN(C)CCN(C(=O)C1CCCCC1)c1nc2ccc(Br)cc2s1,99
CC(C)c1cccc(C(C)C)c1OC(=O)NC(=O)c1c(F)cccc1F,109
CCC1COC(c2cccn2Cc2ccccc2Cl)=N1 (centres undefined),99
CCN1CCN(c2cc(C)c3cc(NC(=O)CC4CCCCC4)ccc3n2)CC1,110
Cc1cccn2c(=O)c(/C=C3\SC(=S)N(C)C3=O)c(N3CCCC3)nc12,100
O=C(COC(=O)C1CCC1)c1ccccc1,96
COc1ccc(-c2cc(=NCCc3ccccc3)c3cc(C)ccc3o2)cc1,41*
CC(=O)Nc1cc(C(F)(F)F)ccc1N1CCN(c2ccccc2)CC1,98
C=CCNC(=O)CSc1ccc(F)cc1,112
COc1cc(Cl)c(C)cc1NC(=S)N(Cc1ccc(C)cc1)Cc1ccco1,100
CN(C)CCN(Cc1ccccc1)Cc1ccsc1,100
COc1ccc(CNC2CC(C)(C)NC(C)(C)C2)cc1,100
CCOC(=O)c1cc2c(C(F)(F)F)cc(=O)[nH]c2o1,82
Cc1nnc(-c2ccccc2)c(=O)n1/N=C/c1ccc2c(c1)OCO2,99
O=C(/C=N/O)Nc1cccc(C(F)(F)F)c1,99

# Carrying on.
SMILES,Vaccinia pol inh
CCOC(=O)c1c(/N=C/C2C(=O)c3ccccc3C2=O)sc(C)c1C,100
O=C(NCc1ccco1)c1cccc(N2CCCC2=O)c1,98
CCCC1Nc2ccccc2S(=O)(=O)N1 (centres undefined),114
O=C(OCC(=O)N1CCCCC1)c1ccc(Oc2ccccc2)cc1,87
Cc1nn(-c2ccccc2)c(-n2cccc2)c1C(=O)N1CCCC1,83
Cc1ccc(/C(N)=N/O)cc1,100
O=C(NCCc1nc(-c2ccccc2)cs1)c1ccccc1,99
COc1ccc(OCCNS(=O)(=O)c2ccc3c(c2)oc2ccccc23)cc1,100
Cc1noc(C)c1S(=O)(=O)N(C)CC(=O)N1CCc2ccccc21,115
Cc1ccccc1CSCc1ccc(C(=O)NCc2cccs2)o1,95
CC1=CS(=O)(=O)CC1SC(=S)N(C)C1CCS(=O)(=O)C1 (centres undefined),100
O=C(Cc1cccc2ccccc12)Nc1nnc(-c2ccccc2)s1,101
COC(=O)COc1ccccc1C#N,109
CC(C)(C)C(=O)NC(=S)Nc1cccc(O)c1,100
CCC1CCCCN1CCCNc1nc(=S)[nH]c2ccccc12 (centres undefined),92
Cc1ccc(S(=O)(=O)c2cc3c(=O)n4ccccc4nc3n(Cc3ccccc3)c2=N)cc1,101
CCn1c(=O)n(-c2ccccc2)c(=O)c2c1c1cc(C)ccc1n2C,100
O=C(NCc1ccccn1)c1ccc(Cn2cc(Br)cn2)o1,100
O=C1C(=O)N(CCN2CCOCC2)C(c2ccccc2F)/C1=C(\O)c1ccccc1 (centres undefined),90
CC[N+]1=C(C)C(C)(C)c2cc(-c3ccccc3)ccc21,100
CCn1c(Sc2ncnc3c2sc2nc(C)cc(C)c23)nnc1-c1cccs1,93
O=C(C[n+]1ccc(/C=N/O)cc1)N1CCCCC1,100
CC(N)C12CC3CC(CC(O)(C3)C1)C2 (centres undefined),104
O=C(CSc1nnc(CNC(=O)c2ccco2)o1)c1ccccc1,95
N#C/C(=C\Nc1cccc(C(F)(F)F)c1)c1ccc(Cl)cc1,99
Cc1nc2ccc(C(=O)O)cc2nc1C,97
COC(=O)c1ccc(CN2CCOCC2)o1,108
CCOc1ccccc1C1CC(=O)NC(C)=C1C(=O)OCC1CCCCC1 (centres undefined),105
Fc1ccc(C=Nc2cc(Cl)cc(Cl)c2)cc1F,104
O=C(Nc1ccccc1)C(/C=N/O)C(=O)Nc1ccccc1,101

# Quoted at random: 2 records from the list
SMILES,Vaccinia pol inh
CCOc1ccccc1C1CC(=O)NC(C)=C1C(=O)OCC1CCCCC1 (centres undefined),105
CCn1c(=O)n(-c2ccccc2)c(=O)c2c1c1cc(C)ccc1n2C,100

# Some of the entries so far, with bars between the fields.
mol | Vaccinia pol inh
COC(=O)COc1ccccc1C#N | 109
CC(C)(C)C(=O)NC(=S)Nc1cccc(O)c1 | 100
CCC1CCCCN1CCCNc1nc(=S)[nH]c2ccccc12 (centres undefined) | 92
Cc1ccc(S(=O)(=O)c2cc3c(=O)n4ccccc4nc3n(Cc3ccccc3)c2=N)cc1 | 101
CCn1c(=O)n(-c2ccccc2)c(=O)c2c1c1cc(C)ccc1n2C | 100
O=C(NCc1ccccn1)c1ccc(Cn2cc(Br)cn2)o1 | 100
O=C1C(=O)N(CCN2CCOCC2)C(c2ccccc2F)/C1=C(\O)c1ccccc1 (centres undefined) | 90
CC[N+]1=C(C)C(C)(C)c2cc(-c3ccccc3)ccc21 | 100
CCn1c(Sc2ncnc3c2sc2nc(C)cc(C)c23)nnc1-c1cccs1 | 93
O=C(C[n+]1ccc(/C=N/O)cc1)N1CCCCC1 | 100
CC(N)C12CC3CC(CC(O)(C3)C1)C2 (centres undefined) | 104
O=C(CSc1nnc(CNC(=O)c2ccco2)o1)c1ccccc1 | 95
N#C/C(=C\Nc1cccc(C(F)(F)F)c1)c1ccc(Cl)cc1 | 99
Cc1nc2ccc(C(=O)O)cc2nc1C | 97
COC(=O)c1ccc(CN2CCOCC2)o1 | 108
CCOc1ccccc1C1CC(=O)NC(C)=C1C(=O)OCC1CCCCC1 (centres undefined) | 105
Fc1ccc(C=Nc2cc(Cl)cc(Cl)c2)cc1F | 104
O=C(Nc1ccccc1)C(/C=N/O)C(=O)Nc1ccccc1 | 101

# Next part
SMILES,Vaccinia pol inh
NNC(=O)CC12CC3CC(CC(C3)C1)C2,112
CC(=O)N1CC(=O)Nc2ccccc21,101
N#C/C(=C/c1ccc(O)c(O)c1)C(=O)OC/C=C/c1ccccc1,100
CCC(NS(=O)(=O)c1ccc(OC)cc1)C(=O)NC1CCCCC1C (centres undefined),94
CCCCCCCCCCCCCCC[C@@H](O)[C@H](CO)NC(C)=O,101
Cc1[nH]n(-c2ccccc2)c(=O)c1Sc1ccc(Cl)cc1,100
O=C1CSC(=O)N1Cc1ccc(CN2C(=O)CSC2=O)cc1,99
Cc1cccc(N=C2C(=O)N(c3ccccc3)c3ccccc32)c1,100
Cc1ccc2c(c1)-c1onc(C(=O)N(CC(C)C)CC(C)C)c1CO2,100
Cc1cc(C)n(NC(=S)NC2CCCC2)c(=O)c1C#N,96
CC(C)C/C(O)=C/c1nc2cc(Cl)ccc2oc1=O,100
CC1CCCCC1NC(=O)C1CCN(Cc2cnn(-c3ccccc3)c2-n2cccc2)CC1 (centres undefined),101
O=C(COC(=O)c1ccncc1)Nc1cccc2ccccc12,100
CCN1CCCC1CNC(=O)c1ccc2c(c1)sc1nc(-c3ccc(C)cc3)cn12 (centres undefined),100
O=C(c1cc2ccccc2oc1=O)N1CCSC1c1ccccc1 (centres undefined),100
O=C(CSc1nc2ccccc2c(=O)n1CCc1ccccc1)c1ccc(Cl)cc1,99
O=C(Nc1cccc(C2=NCCN2)c1)Nc1cccc(C2=NCCN2)c1,78*
CCOC(=O)c1c(C(=O)OCC)c(C)n(N2C(=O)CSC2=S)c1C,108
N#Cc1ccc(-c2cccs2)nc1SCCOc1ccccc1,101
CCOC(=O)c1c(C)n(-c2ccc(C)cc2)c2ccc(OCC(O)CN3CCN(C)CC3)cc12 (centres undefined),99
CCOc1ccc(-c2nc(CSCC(=O)N3CCOCC3)c(C)o2)cc1,103
O=C1c2cccnc2C(=O)N1Cc1ccc(S(=O)(=O)N2CCCCC2)cc1,96
Cc1ccc(N(Cc2ccco2)C(=O)c2cccnc2)cc1,101
Cc1cccc2c1-c1sc(C(=O)NCCN(C)C3CCCCC3)cc1CO2,83
CSC1=NC(C)=C(C(=O)Nc2ccccc2)C2(CCCCC2)C1C(N)=O (centres undefined),100
O=C(CSc1ncnc2ccccc12)N(Cc1ccccc1)Cc1ccccc1,90
Cc1ccc([C@H]2[C@@H](C#N)[C@H](C#N)N3CCCN23)cc1,99
O=C(COC(=O)c1ccccc1)c1cccc(C(F)(F)F)c1,105
Cc1cc(C)cc(-n2ccnc2SCC(=O)NC2CCCCC2)c1,99
CSc1nc2c([nH]c3ccccc32)c(=O)n1-c1ccccc1,100
N#Cc1nc2c(-c3nc4ccccc4s3)c(N)n(CC3CCCO3)c2nc1C#N (centres undefined),108
COC(=O)CSc1ccc2nnc(-c3ccc(OC)cc3)n2n1,103
NC(=O)COC(=O)Cc1ccc(Cl)c(Cl)c1,93
COCc1cc(=O)[nH]c(SCC(=O)c2ccccc2)n1,87
O=C(NCc1cccs1)c1ccccc1N1CCOCC1,75
O=CNC1CCCc2c1[nH]c1ccc(F)cc21 (centres undefined),92
O=c1nc(-c2ccc(Cl)cc2)c2ccccc2[nH]1,91
C=CCSc1nnc(NC(=O)C2C(C=C(Cl)Cl)C2(C)C)s1 (centres undefined),109
Cc1ccc(S(=O)(=O)NC(C(=O)NC2CCCCC2)C(C)C)cc1 (centres undefined),80
Cc1c(CN2CCN(c3ccccn3)CC2)sc2ccccc12,98
O=C(O)c1ccc(-c2ccccc2)[nH]1,99
CC(CC(=O)O)CC1=NS(=O)(=O)c2ccccc2N1 (centres undefined),102
COc1cccc2cc(-c3cn(-c4ccc(F)c(F)c4)c(=S)[nH]3)c(=O)oc12,100
Cc1ccc(C(=O)Nc2ccc3ccccc3n2)cc1,100
CCCCn1c(=S)[nH]c2c1c(=O)[nH]c(=O)n2C,99
N#Cc1ccc(OCc2cnc(Cl)s2)cc1,106
O/N=C/c1c(Cl)nc2sccn12,84
CC(C)c1ccc(NC(=O)COn2nnc3ccccc32)cc1,103
CCOC(=O)c1[nH]c(=O)[nH]c1Cn1nc(C)cc1C,100
S=C(N=S(c1ccccc1)c1ccccc1)Nc1ccccc1,99
CCOC(=O)Cc1csc(C)n1,100
O=C1CCCN2N=C(SCC(=O)N3CCCCC3)SC2=N1,99
CC[C@H]1CN2CCc3cc(OC)c(OC)cc3C2C[C@@H]1CC1NCCc2cc(OC)c(OC)cc21 (some centres undefined),95
O=C(COC(=O)/C=C/c1ccco1)Nc1ccccc1,93
Cc1onc(-c2c(Cl)cccc2Cl)c1C(=O)NC(=S)N1CCOCC1,105
Cc1ccc2cc3cc(C(=O)NCC4(c5ccccc5)CCCC4)oc3nc2c1,102
O=C(CSc1ccc(Cl)cc1)Nc1cccc(Cl)c1,100
S=c1nc2c(cnn2-c2ccccc2)c(Nc2ccccc2)[nH]1,100
Cc1oc2cc(O)cc(C)c2c(=O)c1Oc1ccccc1,100
O=C(COc1ccc(Br)cc1)Nc1ccccc1N1C(=O)c2ccccc2C1=O,100
COC(CNc1ncnc2c1c(-c1ccccc1)cn2-c1ccc(C)cc1)OC,101
Cc1cccc2nc(Cn3c(=O)n(CCC(=O)NCc4ccco4)c(=O)c4ccccc43)cc(=O)n12,104
CCN(CC)CCCOc1cccc2ccccc12,103

# These rows are one share of the data (hit frequency here may not be typical).
